Screening results: PubChem, Broad Institute
ID4 binder: binds human ID4 protein on microarray | 31,000 tested, 1.2% active | small molecule microarray, Flag-ID4 binding, fluorescence F/B | P47928 | calls only | AID 624137;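 active = spot signal over background at p below 0.07 in all four prints; compounds were printed on slides so no solution concentration is given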;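 note: a binder raises fluorescence above local background on the spot; about 2 pmol printed per array spot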
Target sequence (P47928 whole entry, looked up): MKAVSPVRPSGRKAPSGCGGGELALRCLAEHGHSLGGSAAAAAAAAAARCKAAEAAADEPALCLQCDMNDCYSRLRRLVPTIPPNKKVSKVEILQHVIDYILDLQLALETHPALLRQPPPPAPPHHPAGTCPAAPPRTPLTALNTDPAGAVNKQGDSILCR
Calls only; i = inactive; + = active, no number.

SMILES | ID4 binder
COC(=O)C(CC#Cc1ccc2c(c1)[C@]1(C(=O)N2)[C@H](c2ccc(O)cc2)N2[C@H](c3ccccc3)[C@H](c3ccccc3)OC(=O)[C@H]2[C@@H]1C(=O)N1CCc2cc(OC)c(OC)cc2C1)C(=O)OC | i
C[C@@H]1CN([C@H](C)CO)S(=O)(=O)c2ccc(Br)cc2O[C@H]1CN(C)C | i
O=C(C[C@H]1C[C@H]2c3cc(NS(=O)(=O)c4ccc(F)cc4)ccc3O[C@H]2[C@@H](CO)O1)N1CCc2ccccc2C1 | i
C=CCn1c(SCC(N)=O)nnc1-c1ccc(Br)cc1 | i
COc1ccc([Si](C)(C)[C@H]2[C@H](CCO)O[C@@]3(C(=O)N(Cc4cccc(N5CCCCC5=O)c4)c4ccccc43)[C@@H]2C)cc1 | i
COc1ccc(C(=O)CC2(O)C(=O)N(Cc3ccc(Cl)c(Cl)c3)c3ccccc32)cc1OC (configuration not stated) | i
Cn1c(SCC(=O)Nc2cccc(Br)c2)nnc1-c1cc2ccccc2o1 | i
COc1cccc(-c2cnc3c(c2)C(=O)N([C@H](C)CO)C[C@@H](C)[C@H](CN(C)Cc2ccccc2)O3)c1 | i
CC(C)(C)C1CCc2c(sc(NC(=O)CSc3nnnn3-c3ccccc3)c2C#N)C1 (configuration not stated) | i
CN(C)c1ccc2c(c1)[C@H]1C[C@H](CC(=O)NCc3ccc(Cl)cc3)O[C@H](CO)[C@H]1O2 | i
O=C(Nc1ccc2c(c1)OCO2)N[C@H]1C=C[C@@H](CC(=O)N2CCN(c3ccccc3)CC2)O[C@@H]1CO | i
N#C[C@H]1[C@@H](c2ccc(-c3cccnc3)cc2)[C@@H](CO)N1C(=O)C1CCOCC1 | i
COc1cccc(NC(=O)Cn2cc(C(=O)C(C)(C)C)c3ccccc32)c1 | i
C[C@@H]1CN([C@H](C)CO)S(=O)(=O)c2ccc(C#CCC3CCCC3)cc2O[C@@H]1CN(C)C | i
C[C@H](CO)N1C[C@H](C)[C@H](CN(C)S(=O)(=O)c2cccc(C#N)c2)OCc2ccccc2-c2c(n(C)c3ccccc23)C1=O | i
NC(=O)C1CCN(C(=O)CSc2nc3ccccc3[nH]2)CC1 | i
C[C@@H]1CN([C@@H](C)CO)S(=O)(=O)c2ccc(C#Cc3ccccc3F)cc2O[C@@H]1CN(C)C(=O)c1ccc2c(c1)OCO2 | i
Cc1ccc(CCC(=O)Nc2cc(Cl)ccc2Cl)o1 | i
Cc1c(Cl)cccc1NC(=O)CNC(=O)c1ccco1 | i
CO[C@@H]1CN(C)C(=O)c2ccc(N)cc2OC[C@@H](C)NC[C@H]1C | i
COc1ccc(NC(=O)COc2ccc(CO)cc2OC)cc1 | i
O=C(O)c1cccc(CSc2nc(-c3ccc(Cl)cc3)cc(C(F)(F)F)n2)c1 | i
CCCN1C[C@@H](C)[C@H](OC)CN(C)C(=O)c2ccc(NC(=O)c3ccccc3F)cc2OC[C@H]1C | i
Cc1c(CCC(=O)O)c(=O)oc2cc(OCc3cccc(Cl)c3)ccc12 | i
CC(C)CC#Cc1cnc2c(c1)C(=O)N([C@@H](C)CO)C[C@@H](C)[C@H](CN(C)Cc1ccccc1C(=O)O)O2 | i

(more compounds)
SMILES | ID4 binder
CCCN(C)C[C@H]1Oc2cc(C#CC(C)(C)O)ccc2S(=O)(=O)N([C@@H](C)CO)C[C@H]1C | i
COc1ccc(C#Cc2cnc3c(c2)C(=O)N([C@@H](C)CO)C[C@H](C)[C@H](CN(C)C)O3)cc1 | i
O=C(N[C@H]1C=C[C@H](CC(=O)N2CCOCC2)O[C@@H]1CO)c1cccc(F)c1 | i
CC(C)(C)NC(=O)CSc1nnc(-c2ccccc2Cl)n1-c1ccccc1 | i
Cn1c(SCC(=O)Nc2cccc(O)c2)nnc1-c1ccco1 | i
CCC(=O)N1CCc2cc(S(=O)(=O)NC(CC(C)C)C(=O)NC3CCCC3)ccc21 (configuration not stated) | i
Cc1ccc(N(CC(=O)O)S(C)(=O)=O)cc1C | i
O=C(CSC1CC(=O)N(c2ccc(F)cc2)C1=O)Nc1ccc(Br)cc1 (configuration not stated) | i
COC(=O)c1ccccc1NC(=O)COc1ccc(I)cc1 | i
COc1ccc(CCNC(=O)c2cc(-c3cccnc3)nc3c(Cl)cccc23)cc1OC | i
NNC(=O)Cc1cc(Br)sc1Br | i
CNC[C@@H]1Oc2ncc(-c3ccccc3F)cc2C(=O)N([C@@H](C)CO)C[C@@H]1C | i
CCC(=O)N(C)C[C@@H]1Oc2ncc(-c3ccc(F)cc3)cc2C(=O)N([C@H](C)CO)C[C@@H]1C | i
O=C(COc1ccccc1)Nc1ccc2oc(-c3ccc(Cl)cc3Cl)nc2c1 | i
C[C@H](CO)N1C[C@H](C)[C@H](CN(C)C)Oc2cc(-c3cccc(F)c3)ccc2S1(=O)=O | i
COc1ccc(S(=O)(=O)N(C)CC(=O)Nc2cc(Cl)ccc2OC)cc1C | i
COc1cc(CO)cc(I)c1OCc1cccc([N+](=O)[O-])c1 | i
Cn1c(NCCCN)nc2c1c(=O)n(Cc1ccccc1Cl)c(=O)n2C | +
CCCNC(=O)N(C)C[C@H]1Oc2ncc(-c3ccncc3)cc2C(=O)N([C@@H](C)CO)C[C@H]1C | i
O=C1C(=O)N(Cc2ccco2)C(c2cccc(O)c2)C1C(=O)c1ccco1 (configuration not stated) | i
Cc1ccc(OC(=O)N(C)C[C@H]2OCc3ccccc3-c3ccccc3C(=O)N([C@H](C)CO)C[C@H]2C)cc1 | i
O=c1c(-c2ccc(O)cc2)coc2cc(O)cc(O)c12 | i
CCCNC(=O)N(C)C[C@H]1Oc2cc(C#Cc3cccc(F)c3)ccc2S(=O)(=O)N([C@@H](C)CO)C[C@@H]1C | i
O=C(CC1(O)C(=O)Nc2ccc([N+](=O)[O-])cc21)c1ccccc1 (configuration not stated) | i
CC(NC(=O)Cn1cc(Br)c([N+](=O)[O-])n1)c1ccccc1 (configuration not stated) | i

Following part
SMILES | ID4 binder
CCn1c(=O)c(C(=O)NCC2CCCO2)c(O)c2ccccc21 (configuration not stated) | i
O=C1CCCN2N=C(SCC(=O)c3ccc(Cl)cc3)SC2=N1 | i
CCCN(C)C[C@@H]1Oc2cc(C#CCN(C)C)ccc2S(=O)(=O)N([C@H](C)CO)C[C@@H]1C | i
CNC[C@@H]1Oc2cc(C3=CCCC3)ccc2S(=O)(=O)N([C@@H](C)CO)C[C@H]1C | i
NC(=O)CSc1nc(-c2ccccc2)nc2sc3c(c12)CCCC3 | i
Cc1ccn2cc(-c3cccc(NS(=O)(=O)c4cccc([N+](=O)[O-])c4)c3)nc2c1 | i
O=C(C[C@H]1CC[C@H](NC(=O)C2CC2)[C@@H](CO)O1)NCC1CC1 | i
COc1cc(-c2nnc(SCC(=O)c3ccc(Cl)cc3)n2-c2ccccc2)cc(OC)c1OC | i
C[C@@H]1CN([C@H](C)CO)C(=O)c2cc(-c3ccccc3)cnc2O[C@H]1CN(C)C | i
CCOc1cc(S(=O)(=O)NCc2cccnc2)c(C)cc1C | i
O=C(C[C@@H]1C=C[C@H](NS(=O)(=O)c2ccc(F)cc2)[C@@H](CO)O1)NC1CCCCC1 | i
Cc1cccc(-c2nnc(SCC(=O)c3ccccc3)n2-c2ccccc2)c1 | i
CC(=O)OC(C[C@@]1(C)[C@H](C)[C@H](OC(C)=O)C[C@@]23COC(=O)C2=CCC[C@@H]31)c1ccoc1 (some centres not stated) | i
CCOc1ccc(S(=O)(=O)NCc2ccccn2)cc1 | i
CC(=O)N[C@H]1C=C[C@@H](CC(=O)NCC2CCCCC2)O[C@@H]1CO | i
O=C(Nc1ccc2c(c1)[C@H]1C[C@@H](CC(=O)N3CCCCC3)O[C@H](CO)[C@H]1O2)C1CCC1 | i
O=C(C[C@H]1C=C[C@@H](NC(=O)C2CCC2)[C@H](CO)O1)NC1CCCCC1 | i
CCCCN1C(=O)C(O)(CC(=O)c2ccco2)c2ccccc21 (configuration not stated) | i
CCOC(=O)N1CCC(=C2c3ccc(Cl)cc3CCc3cccnc32)CC1 | i
CCOC(=O)c1nnn(-c2nonc2-n2cccc2)c1C | i
CC1=C(C(=O)Nc2ccc(Cl)cc2)C(c2cccc(F)c2)n2nc(CCCO)nc2N1 (configuration not stated) | i
COCCOC(=O)N1C(=O)[C@@]2(c3ccccc31)[C@H](c1ccccc1OCCO)N1[C@H](c3ccccc3)[C@H](c3ccccc3)OC(=O)[C@H]1[C@@H]2C(=O)NC[C@H](O)c1ccccc1 | i
O=C(CSc1n[nH]c(-c2ccccc2)n1)Nc1cccc(C(F)(F)F)c1 | i
COCC#Cc1cnc2c(c1)C(=O)N([C@@H](C)CO)C[C@@H](C)[C@@H](CN(C)Cc1ccccc1)O2 | i
COc1ccc(NC(=O)O[C@H](c2ccc(OCCO)cc2)[C@@H](CCO)OC)cc1 | i

Other results
SMILES | ID4 binder
Cc1nn(CC(=O)NCc2ccccc2Cl)c(C)c1[N+](=O)[O-] | i
COc1ccc(CC(=O)n2nc(-c3ccc(Cl)cc3)nc2NCc2ccco2)cc1OC | i
CS(=O)(=O)N(CC(=O)Nc1ccccc1-c1ccccc1)c1ccc(F)cc1 | i
COc1ccc([N+](=O)[O-])cc1NC(=O)CN(C)S(=O)(=O)c1ccccc1 | i
CNC[C@@H]1Oc2ncc(-c3ccc(C)cc3)cc2C(=O)N([C@H](C)CO)C[C@@H]1C | i
CCCC#Cc1cnc2c(c1)C(=O)N([C@H](C)CO)C[C@@H](C)[C@@H](CN(C)C(=O)C1CCCCC1)O2 | i
COc1cccc(-c2ccc3c(c2)O[C@@H](CN(C)C)[C@@H](C)CN([C@H](C)CO)S3(=O)=O)c1 | i
COc1ccc(NC(=O)CN(C)S(=O)(=O)c2cc(Cl)ccc2Cl)cc1OC | i
O=C(O)CSc1nnc(-c2cccs2)n1-c1cccc(C(F)(F)F)c1 | i
COc1cccc(NC(=O)N[C@@H]2C=C[C@@H](CC(=O)NCc3ccncn3)O[C@@H]2CO)c1 | i
O=c1[nH]c2cc(Cl)c(Cl)cc2[nH]c1=O | i
Cc1nnc(C)n1/N=C/c1cc(Br)cc(Br)c1O | i
COc1ccccc1-c1ccc2c(c1)O[C@@H](CN(C)CC1CC1)[C@@H](C)CN([C@@H](C)CO)S2(=O)=O | i
O=C(c1ccc(Oc2ccccc2)cc1)c1nc2c(n1O)CCCC2 | i
Cc1ccc(S(=O)(=O)CCC(=O)Nc2cccc(Cl)c2)cc1 | i
COC(=O)c1ccccc1NC(=O)CNC(=O)c1cccs1 | i
COCC#Cc1cnc2c(c1)C(=O)N([C@H](C)CO)C[C@H](C)[C@@H](CN(C)Cc1ccccc1F)O2 | i
CCOC(=O)c1cnc2c(C)cc(Cl)cc2c1NCCN1CCOCC1 | i
CCN(CC)S(=O)(=O)c1ccc(OC)c(NC(=O)c2cc3ccccc3oc2=O)c1 | i
O=C(CSc1nnc(-c2cccnc2)n1-c1ccc(Br)cc1)c1ccc(F)cc1 | i
Cc1ccc(-c2cc(C(F)F)n3ncc(C(=O)NCc4ccco4)c3n2)cc1 | i
C[C@H](CO)N1C[C@H](C)[C@@H](CN(C)C(=O)C2CCC2)Oc2cc(C#CC(C)(C)O)ccc2S1(=O)=O | i
COCC#Cc1ccc2c(c1)O[C@@H](CN(C)C)[C@H](C)CN([C@@H](C)CO)S2(=O)=O | i
O=C(CSc1nc2ccccc2s1)Nc1ccc(Cl)cc1 | i
C[C@H](CO)N1C[C@H](C)[C@@H](CN(C)CC2CCCC2)OCc2cn(nn2)CCCC1=O | i

Exported comma-delimited: part of the list above.
molecule,ID4 binder
COc1ccc(NC(=O)CN(C)S(=O)(=O)c2cc(Cl)ccc2Cl)cc1OC,i
O=C(O)CSc1nnc(-c2cccs2)n1-c1cccc(C(F)(F)F)c1,i
COc1cccc(NC(=O)N[C@@H]2C=C[C@@H](CC(=O)NCc3ccncn3)O[C@@H]2CO)c1,i
O=c1[nH]c2cc(Cl)c(Cl)cc2[nH]c1=O,i
Cc1nnc(C)n1/N=C/c1cc(Br)cc(Br)c1O,i
COc1ccccc1-c1ccc2c(c1)O[C@@H](CN(C)CC1CC1)[C@@H](C)CN([C@@H](C)CO)S2(=O)=O,i
O=C(c1ccc(Oc2ccccc2)cc1)c1nc2c(n1O)CCCC2,i
Cc1ccc(S(=O)(=O)CCC(=O)Nc2cccc(Cl)c2)cc1,i
COC(=O)c1ccccc1NC(=O)CNC(=O)c1cccs1,i
COCC#Cc1cnc2c(c1)C(=O)N([C@H](C)CO)C[C@H](C)[C@@H](CN(C)Cc1ccccc1F)O2,i
CCOC(=O)c1cnc2c(C)cc(Cl)cc2c1NCCN1CCOCC1,i
CCN(CC)S(=O)(=O)c1ccc(OC)c(NC(=O)c2cc3ccccc3oc2=O)c1,i
O=C(CSc1nnc(-c2cccnc2)n1-c1ccc(Br)cc1)c1ccc(F)cc1,i

More entries:
SMILES | ID4 binder
CC(Oc1ccc(Br)cc1)c1nc(-c2cccnc2)no1 (configuration not stated) | i
Cc1cc(C)c(NC(=O)CN(c2ccc(Br)cc2)S(C)(=O)=O)c(C)c1 | i
COc1ccc(NC(=O)CCCC(=O)O)cc1 | i
Cc1ccc(N(CC(=O)Nc2ccc(F)cc2)S(=O)(=O)N2CCCC2)cc1 | i
CC(C)[C@@H](C)NC(=O)N(C)C[C@H]1OCc2ccccc2-c2ccccc2C(=O)N([C@@H](C)CO)C[C@H]1C | i
C[C@@H](NC(=O)C[C@H]1CC[C@@H](NC(=O)c2cccnc2)[C@@H](CO)O1)c1ccccc1 | i
COC(=O)CCC(=O)NC(=S)Nc1cc(Cl)ccc1Cl | i
C[C@@H]1CN([C@H](C)CO)C(=O)c2cccc(N(C)C)c2O[C@H]1CN(C)Cc1ccncc1 | i
C=CCN1Cc2ccccc2[C@@H]2OC(c3ccc(OCCCO)cc3)=N[C@]2(Cc2ccccc2)C1=O | i
C[C@@H]1CN([C@H](C)CO)C(=O)c2cc(C#CC3CCCC3)cnc2O[C@@H]1CN(C)C(=O)C1CC1 | i
Cn1c(=O)c2c(nc(NCC(O)c3ccccc3)n2Cc2ccc(F)cc2)n(C)c1=O (configuration not stated) | i
CN1CCN(C(=O)C[C@H]2C[C@@H]3c4cc(NC(=O)Cc5ccncc5)ccc4O[C@@H]3[C@@H](CO)O2)CC1 | i

Only part of the results is shown (hit frequency here may not be typical).
